Bioassay records: PubChem BioAssay, several laboratories
ugtP null kill: kills S. aureus RN4220 lacking UgtP | growth inhibition, % (no concentration beside the values) | 330,000 compounds, 0.54% hits | S. aureus RN4220 ugtP deletion, OD600 growth, 16 h; some inactives read as strong as hits;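 active = z-score under -3 and OD600 up to 0.15 on both plates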;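 also: plate controls were untreated wells for no effect and antibiotic for full effect; wells of about 80 µL received 100 nL stock; the first replicate is given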
Autofluor counter: flagged as autofluorescent in microsphere protease counterscreen. compound autofluorescence counterscreen, microsphere flow cytometry; active compounds read high. fluorescence intensity (no concentration beside the values). 360,000 compounds, 3.1% hits;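 active = at least 3 SD above the mean of all compounds, about 16000 in these data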;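 also: 100 nL of 1 mM stock went into each well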
PrP UTR inh: suppresses PrP 5' UTR mRNA reporter expression | 340,000 compounds, 0.35% hits | inhibition, % (test concentration not listed) | cell-based PrP 5' UTR mRNA reporter, plate reader;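 active = every replicate at 50% or more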;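 also: 0 = median of the neutral control wells; tested in H4 reporter cells; numbers are from one replicate; inactives centre near -14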
Sa RN4220 lethal: kills Staphylococcus aureus RN4220; S. aureus RN4220 growth, OD600, 16 h; inhibition, % (no concentration beside the values); 330,000 compounds, 0.33% hits; AID 1259311;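 active = z-score of -3 or lower and OD600 up to 0.18 on both plates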;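 also: plate controls were untreated cells for no effect and reference antibiotic for full effect; stock transfer was 100 nL into about 80 µL; one replicate is shown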
BJeLR lethal: BJeLR cell viability loss. 300,000 compounds, 0.17% hits. BJeLR (HRASV12) viability, CellTiter-Glo ATP luminescence, 48 h; reference of the scale not given here. inhibition, % (concentration not given with the values);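 active = replicate mean above 50%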;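 also: 50 nL library stock added to about 25 µL; numbers are from one replicate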
Mtb hypoxia rep: reduces hypoxia-regulated biosensor signal in M. tuberculosis; M. tuberculosis hypoxia-regulated fluorescent reporter, fluorescence; fluorescence inhibition, % (concentration not given with the values); 300,000 compounds, 0.1% hits; AID 1159583;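 active = 35 to 45% if threefold the growth effect, above 45% if 1.5-fold the growth effect; inactive = the rest, general growth blockers included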;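 also: wells of about 50 µL received 100 nL stock; 0% = vehicle wells and 100% = reference inhibitor wells; whole bacteria with a GFP reporter of the hypoxia response; strong numbers were not always called active; many hits fall short of the cut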
Mtb hypoxia rep growth: further read-out of Mtb hypoxia rep, marked with its call; growth inhibition, %; measured here: M. tuberculosis growth (absorbance);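 0% = vehicle and 100% = reference antibiotic; read after six days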
Numbers without * were called inactive; . = not tested or not shown.

SMILES	ugtP null kill	Autofluor counter	PrP UTR inh	Sa RN4220 lethal	BJeLR lethal	Mtb hypoxia rep	Mtb hypoxia rep growth
Cc1cccc(NC(=O)C2CCC(CNC(=O)[C@@H]3Cc4ccccc4CN3)CC2)c1 (stereo partly drawn)	-9.8	6417	-14.6	-3.3	8.1	-6.3	3.8
Cc1c(N(C)C)c(=O)n(-c2ccccc2)n1C	1.7	4906	5.3	2.5	.	4.8	0.1
Cc1cc(NC(=O)CCC(=O)N(c2cccnc2)C(C(=O)NC2CCCC2)c2ccccc2)no1 (stereo not drawn)	8.2	4643	-11.0	2.7	-2.2	3.8	2.5
O=C(OCc1c(-c2ccccc2)ncc2ccccc12)c1cccs1	24.8	2931	-1.2	3.7	.	11.6	11.6
Cc1nc(C)n(C(=O)N(c2ccccc2)c2ccccc2)n1	6.3	3851	-4.9	1.9	8.8	.	.
CC(=O)N1c2ccc(S(=O)(=O)N3CCCCC3)cc2CC1C(=O)Nc1ccccc1C(F)(F)F (stereo not drawn)	4.9	4718	-20.1	4.6	-6.2	-4.0	-7.4
COc1cccc(C(=O)N(C)CC2CCN(CCc3cccc(C(F)(F)F)c3)CC2)c1	1.0	5508	0.8	-2.0	0.7	-2.4	11.4
C[C@H](NS(=O)(=O)c1ccc(Cl)cc1)C(=O)OCC(=O)Nc1cc(S(=O)(=O)N2CCOCC2)ccc1Cl	-4.4	2952	11.7	-0.2	.	-6.5	-2.6
COc1cccc(-c2c(C(=O)NN=Cc3ccc(C)o3)nnn2-c2nonc2N)c1	2.1	.	.	3.6	.	2.8	-2.7
COc1cc(C=NNc2nc(N3CCCC3)nc(N3CCCC3)n2)ccc1O	6.9	.	.	-1.5	.	-1.4	5.9
CCC1CCc2sc(C(=O)NCc3ccccn3)cc2C1 (stereo not drawn)	4.2	5710	-43.9	-1.5	7.1	19.8	11.2
O=C(O)c1ccccc1OCC1CCCO1 (stereo not drawn)	12.1	3993	-27.2	4.1	-1.3	1.7	-2.3
O=C(C1=C[C@@H]2[C@H]3C(=O)N(c4cccc(Cl)c4)C(=O)[C@H]3[C@@H](C(=O)c3ccc(Cl)cc3)N2C=C1)c1ccccc1	.	3330	-27.7	.	1.4	.	.
COc1ccc(C(=O)NCN2CCN(c3ccccc3)CC2)cc1OC	2.4	3530	-2.9	2.3	.	6.1	-2.2
Cn1cccc1CC(=O)NNC(=O)Nc1cccc(Cl)c1	-1.7	2210	-9.4	3.4	-0.1	7.7	15.2
Cc1ccnc(NC(=O)c2ccc(Cl)c(NC(=O)C(C)Oc3ccccc3)c2)c1 (stereo not drawn)	2.4	4161	-13.7	5.6	0.5	6.9	16.9
CC(C)(C#N)Cc1cc(CC(C)(C)C#N)cc(C(C)(C)C)c1	1.3	3786	-3.4	2.9	-1.5	3.2	1.3
O=C(c1cccc(S(=O)(=O)Nc2ccccc2F)c1)N1CCN(c2ccccc2F)CC1	-2.1	4909	-29.8	5.6	3.5	10.3	-1.0
COc1ccccc1CNC(=O)CCCNC(=O)c1ccc(Cl)cc1	15.7	3064	-17.3	3.1	-5.3	10.1	6.1
CCC(C)Nc1nc(N)c([N+](=O)[O-])c(N2CCCCCC2)n1 (stereo not drawn)	-12.6	4037	-13.5	4.9	-1.7	2.4	-5.8
COc1cccc(CN(C)C(=O)c2ccc3c(=O)n4c(nc3c2)CCC4)c1	0.1	4906	-6.9	1.5	0.4	6.1	-1.0
CCC(=O)Nc1c(-c2ccc(OC)cc2)c(=O)c2ccccc2n1C	2.0	4051	-5.4	0.4	-9.3	0.5	-1.5
COc1ccc(CNC(=O)Nc2cccc(Cl)c2)cc1	-2.9	6864	-58.4	-3.9	.	-4.1	-1.6
Cc1[nH]c2ccccc2c1SCC(=O)N1CCCc2ccccc21	-5.4	6631	-6.6	17.3	-1.4	-0.1	13.6
N#Cc1cnc(Nc2nc3ccccc3o2)nc1-c1ccccc1	-1.9	2268	-28.0	3.3	8.1	.	.

Some of the entries above, set out differently:
CCC1CCc2sc(C(=O)NCc3ccccn3)cc2C1 (stereo not drawn)
- ugtP null kill: 4.2
- Autofluor counter: 5710
- PrP UTR inh: -43.9
- Sa RN4220 lethal: -1.5
- BJeLR lethal: 7.1
- Mtb hypoxia rep: 19.8
- Mtb hypoxia rep growth: 11.2
Cc1cccc(NC(=O)C2CCC(CNC(=O)[C@@H]3Cc4ccccc4CN3)CC2)c1 (stereo partly drawn)
- ugtP null kill: -9.8
- Autofluor counter: 6417
- PrP UTR inh: -14.6
- Sa RN4220 lethal: -3.3
- BJeLR lethal: 8.1
- Mtb hypoxia rep: -6.3
- Mtb hypoxia rep growth: 3.8
Cn1cccc1CC(=O)NNC(=O)Nc1cccc(Cl)c1
- ugtP null kill: -1.7
- Autofluor counter: 2210
- PrP UTR inh: -9.4
- Sa RN4220 lethal: 3.4
- BJeLR lethal: -0.1
- Mtb hypoxia rep: 7.7
- Mtb hypoxia rep growth: 15.2
O=C(O)c1ccccc1OCC1CCCO1 (stereo not drawn)
- ugtP null kill: 12.1
- Autofluor counter: 3993
- PrP UTR inh: -27.2
- Sa RN4220 lethal: 4.1
- BJeLR lethal: -1.3
- Mtb hypoxia rep: 1.7
- Mtb hypoxia rep growth: -2.3

Later entries
SMILES	ugtP null kill	Autofluor counter	PrP UTR inh	Sa RN4220 lethal	BJeLR lethal	Mtb hypoxia rep	Mtb hypoxia rep growth
Cc1ccc(C)c(-n2c(SCC(=O)O)nc3sc4c(c3c2=O)CCCC4)c1	5.5	3610	8.2	-8.5	3.3	8.4	17.1
O=C(CS(=O)c1ccccc1[N+](=O)[O-])Oc1ccc(Br)cc1 (stereo not drawn)	3.4	3343	-12.5	-0.5	2.5	-9.5	3.4
O=CNCCCc1nc2ccccc2n1Cc1ccccc1	-3.6	16906*	-7.1	-5.4	-2.1	-3.4	-3.1
O=C(CSc1nc(-c2ccccc2)c(-c2ccccc2)[nH]1)N1CCN(S(=O)(=O)c2ccccc2)CC1	-0.6	5999	-17.1	8.9	-0.8	1.2	6.2
CCc1ccc2[nH]c(=O)c(C(c3nnnn3CC3CCCO3)N3CCN4CCCC4C3)cc2c1 (stereo not drawn)	3.3	14881	-20.1	3.5	-3.1	6.5	2.7
CC(C)c1nnc(NC(=O)CCC(=O)N2CCN(Cc3ccccc3)CC2)s1	6.6	3305	-12.8	1.1	6.6	.	.
Cc1ccc(C(=O)C(OC(=O)CN2C(=O)c3ccccc3C2=O)c2ccccc2)cc1 (stereo not drawn)	3.1	10662	-21.2	1.4	-8.6	11.7	9.7
O=C(NCc1ccc2c(c1)OCO2)c1ccc(S(=O)(=O)N2CCCCC2)cc1	-2.3	9333	-27.2	1.9	-0.2	13.5	8.3
O=C(CSc1nc(NS(=O)(=O)c2ccccc2)cc(=O)[nH]1)Nc1cccc(C(F)(F)F)c1	10.1	4824	-19.5	0.9	-13.6	-9.6	2.6
Cc1nn2c(=S)[nH]nc2[nH]c1=O	-3.0	4473	-6.6	-1.1	-8.4	-3.8	-8.9
CC(=O)N1CCN(c2ccc(NC(=O)c3ccc(Cl)c([N+](=O)[O-])c3)cc2)CC1	-2.9	3463	-11.1	4.3	7.1	-9.5	7.0
O=C(Oc1ccccc1)c1cc2ccccc2oc1=O	5.7	3371	0.6	-1.5	.	12.7	-1.7
COc1ccc(N2C(=O)C3CCCN3C2c2cc(OC)c(OC)cc2OC)cc1 (stereo not drawn)	-1.8	6443	-44.7	1.1	-4.5	.	.
CCOC(=O)C1(CCOc2ccccc2)CCN(S(=O)(=O)N(C)C)CC1	2.6	3929	-63.0	6.0	2.8	2.3	1.0
Cc1c(C(=O)N2CCC2)oc2ccc(Cl)cc12	0.9	3353	-18.7	2.7	.	9.9	5.7
CCN1CCN(C(=O)C2CCN(S(=O)(=O)c3ccc(SC)cc3)CC2)CC1	6.4	3453	-8.1	1.4	-5.2	21.2	8.1
CC(C)Cn1c(SCC(=O)Nc2cccc(S(N)(=O)=O)c2)nc2ccccc2c1=O	8.7	3227	11.1	11.3	3.0	9.3	8.0
Cc1cc(C)n(-c2nc3c(c(=O)[nH]c(=O)n3C)n2CC(O)COc2ccccc2)n1 (stereo not drawn)	-1.3	2435	-5.8	1.4	-5.0	.	.
Cc1ccc(CNC(=O)/C=C/c2ccc(S(=O)(=O)N3CCOCC3)cc2)cc1	-11.6	2565	-46.9	-4.2	2.4	-4.9	1.9
CC(C)N(C)S(=O)(=O)c1ccc(Cl)c(C(=O)O)c1	1.2	4931	-7.3	0.0	-1.8	7.1	-4.9
Cc1nn(CC(=O)N(C)c2c(N)n(Cc3ccccc3)c(=O)[nH]c2=O)c(C)c1[N+](=O)[O-]	-3.5	2798	-15.8	0.9	.	4.8	-8.3
Cc1cccc(NC(=O)CCCn2c(=S)[nH]c3ccccc3c2=O)c1	5.4	4520	-19.6	6.9	10.9	-6.7	2.5
O=C(CN(c1cccc([N+](=O)[O-])c1)S(=O)(=O)c1ccccc1)NCc1cccnc1	5.6	3744	-15.6	4.0	-2.8	-1.8	-9.8
Cc1cccc(/C=N/Nc2ccc3ccccc3n2)c1	.	4258	75.5*	.	-2.7	.	.
CCOc1cc(C=NNC(=O)c2ccncc2)ccc1OC(=O)c1ccccc1	17.1	.	.	6.8	.	.	.

Profiles from above. Order of screens: ugtP null kill	Autofluor counter	PrP UTR inh	Sa RN4220 lethal	BJeLR lethal	Mtb hypoxia rep	Mtb hypoxia rep growth
COc1cccc(-c2c(C(=O)NN=Cc3ccc(C)o3)nnn2-c2nonc2N)c1 is listed with 2.1	.	.	3.6	.	2.8	-2.7
CC(C)c1nnc(NC(=O)CCC(=O)N2CCN(Cc3ccccc3)CC2)s1 is listed with 6.6	3305	-12.8	1.1	6.6	.	.

As entered above:
Mtb hypoxia rep growth with CCC(=O)Nc1c(-c2ccc(OC)cc2)c(=O)c2ccccc2n1C is entered as -1.5
ugtP null kill with CCOc1cc(C=NNC(=O)c2ccncc2)ccc1OC(=O)c1ccccc1 is entered as 17.1
PrP UTR inh with COc1ccc(CNC(=O)Nc2cccc(Cl)c2)cc1 is entered as -58.4
PrP UTR inh with Cc1c(N(C)C)c(=O)n(-c2ccccc2)n1C is entered as 5.3

Next part
SMILES	ugtP null kill	Autofluor counter	PrP UTR inh	Sa RN4220 lethal	BJeLR lethal	Mtb hypoxia rep	Mtb hypoxia rep growth
COc1ccc(N2CCN(C(=O)NC3CC(=O)N(c4ccc(OC)cc4)C3)CC2)cc1 (stereo not drawn)	1.6	3381	-2.0	1.5	13.1	5.4	-0.7
COc1ccc(Cl)cc1NC(=O)CCc1nnc2ccc(N3CCN(C)CC3)nn12	14.1	4495	-10.9	3.6	-5.0	-0.3	-8.8
COc1ccc(N(CC(C)C)S(=O)(=O)c2nnc(NC(=O)CC(C)C)s2)cc1	12.0	3765	-6.3	5.0	-8.4	-3.4	8.0
COc1ccc([N+](=O)[O-])cc1N(CC(=O)NC1CCCCC1)S(C)(=O)=O	-4.5	2726	-24.5	1.6	2.2	-17.0	8.5
COc1ccc2nc(NC(=O)C3CCCN(S(=O)(=O)c4cccc5nsnc45)C3)sc2c1 (stereo not drawn)	-5.6	4819	-31.1	1.6	4.7	.	.
O=C(COC(=O)c1cccs1)NC1CCCCC1	4.3	2793	-28.9	0.5	1.0	.	.
CCc1cc2c(SCC(=O)c3ccc(Cl)s3)ncnc2s1	10.3	2345	-23.3	14.4	-1.5	.	.
Cc1ccc(-n2c(C)cc3c2CC(C)(C)CC3=O)cc1C	3.6	10257	-9.3	22.5	-0.9	14.0	4.3
O=C(COC(=O)c1ccc(O)cc1O)N=c1sccn1Cc1ccccc1Cl	-9.5	5117	1.7	2.1	-3.7	0.4	-0.5
Cc1cc(NC(=O)C2CC2)ncc1NC(=O)c1ccccn1	-6.7	2484	-43.7	4.2	4.1	17.4	5.2
COc1ccc(N2CCN(c3ccc(N4C(=O)CC(C)C4=O)cc3[N+](=O)[O-])CC2)cc1 (stereo not drawn)	4.1	3479	1.5	5.8	7.3	9.5	7.6
COc1ccc(CCN=CC2=C(O)CCCC2=O)cc1OC	-4.8	3053	-12.9	8.6	2.8	15.5	12.3
COC(CNC(=O)c1ccc(CS(=O)(=O)c2ccccc2)o1)OC	6.8	3278	-12.1	5.5	6.4	12.5	4.2
CCCc1nn2c(=O)cc(CSCC(=O)Nc3cccc(C)c3)nc2s1	6.0	5848	-27.0	-0.1	4.2	4.4	5.2
